Menin MLL FP FL: inhibitors of human menin-MLL interaction, wild-type MLL peptide; Fluorescence polarization, fluorescein-MLL peptide displacement from menin; FP activity change, % at 61.4 µM; 290,000 tested, under 10 active; AID 1766; inconclusive = falling polarisation curve, or a change in total fluorescence; inactive = total fluorescence flat and polarisation flat or rising; no compound was filed as active; the % refers to the polarisation; negative = inhibition;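 further: % of control where 0% means no effect; inhibitors lower the polarisation; unlabelled MLL peptide was the positive control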
D2 agonist: activates the human D2 dopamine receptor; DiscoveRx PathHunter D2 beta-arrestin, luminescence, 90 min; 100% = 57 uM dopamine signal; activation, % (concentration not given with the values); hit rate 0.084% among 360,000; in the data active = activation above about 40%; inconclusive = about 15% to 40%; inactive = below about 15%; further: compound concentration not given in the record; the text of the record calls up to 30% inactive
Target sequence (P14416 whole entry, looked up): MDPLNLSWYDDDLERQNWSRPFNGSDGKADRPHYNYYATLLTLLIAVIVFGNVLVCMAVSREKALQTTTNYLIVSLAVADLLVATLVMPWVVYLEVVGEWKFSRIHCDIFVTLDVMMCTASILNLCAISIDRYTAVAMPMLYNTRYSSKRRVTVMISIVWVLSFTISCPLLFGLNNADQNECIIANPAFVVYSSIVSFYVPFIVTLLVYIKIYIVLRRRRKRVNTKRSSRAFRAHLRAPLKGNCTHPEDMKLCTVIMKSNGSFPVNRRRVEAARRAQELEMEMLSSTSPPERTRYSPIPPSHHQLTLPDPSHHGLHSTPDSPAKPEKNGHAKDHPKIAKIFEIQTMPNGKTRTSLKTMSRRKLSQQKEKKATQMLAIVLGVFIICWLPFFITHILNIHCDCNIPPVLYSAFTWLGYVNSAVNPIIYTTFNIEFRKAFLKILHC
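Agonist mode: compounds alone added to overnight-plated D2 PathHunter cells for 90 min at 37 C, with 57 uM final dopamine (EC100) defining full response. Beta-arrestin recruitment detected by chemiluminescent reagent, read after 1 h at ambient temperature.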
gsp ag: activates gsp, the McCune-Albright syndrome mutation; gsp mutant cells, cAMP HTRF, 30 min; control for the full effect not named in the record; Potency, µM (titrated, usually from 76.9 µM), for inactives: at the highest dose activation (cAMP increase), most hits filed as activators; hit rate 0.13% among 340,000; active = well fitted activation curve with a large enough effect; inconclusive = small, poorly fitted or top-dose-only effect, or another doubt; inactive = no such curve, though single readings can be large or run the other way; cell line not stated here;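 further: phosphodiesterase inhibitor Ro 20-1724 added with compounds to block cAMP breakdown; potency means the concentration at half of the fitted maximal effect; nearly all actives have a fitted effect of over 60% in size; about a fifth of the inactives were tested at one dose only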
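Cells in DMEM/10% FBS with G418 were pretreated with compounds in DMSO plus […] (300 uM stock) for 30 min at 37C. cAMP was measured by HTRF (cAMP-d2 plus anti-cAMP antibody-K) after 30 min at room temperature.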
Sfp PPTase inh: blocks B. subtilis Sfp PPTase activity; Q9F4F7; Biochemical Sfp PPTase activity, qHTS; Potency, µM, for the others: max response, negative = inhibition, usual class: inhibitors; hit rate 3.5% among 310,000; active means well fitted inhibition curve with a large enough effect; inconclusive means small, poorly fitted or top-dose-only effect, or another doubt; inactive means no such curve, though single readings can be large or run the other way;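 further: the enzyme is Sfp with the accession as filed and its product quenches rhodamine fluorescence; potency means the concentration at half of the fitted maximal effect; 0% = enzyme reaction without inhibitor and -100% = no enzyme wells; top concentration of the series not given in the record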
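After 15 min at room temperature with compound, 15 nM Sfp received 5 uM rhodamine-CoA plus 12.5 uM BHQ-2-ybbR (50 mM Hepes pH 7.6, 10 mM MgCl2). Rate came from the fluorescence difference over 30 min, ex 525/em 598 nm.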
ClpP mod: qHTS Assay for Activators of ClpP; ATP-dependent Clp protease proteolytic subunit (Bacillus subtilis (strain 168)), P80244; purified B. subtilis ClpP, FRET peptide cleavage, 20 min; Potency, µM (highest dose often 57.5 µM), for inactives: at the highest dose activity change, negative = active; hit rate 1.9% among 340,000; AID 651965, 2013; active = well fitted falling curve with a large enough effect; inconclusive = small, poorly fitted or top-dose-only effect; inactive = no such curve, though single readings can be large or run the other way; further: potency means the concentration at half of the fitted maximal effect; the source files actives as falling curves though it sought activators and does not explain the sign; nearly all actives have a fitted effect of over 65% in size; many hits overshoot -100%
Target sequence (P80244 whole entry, looked up): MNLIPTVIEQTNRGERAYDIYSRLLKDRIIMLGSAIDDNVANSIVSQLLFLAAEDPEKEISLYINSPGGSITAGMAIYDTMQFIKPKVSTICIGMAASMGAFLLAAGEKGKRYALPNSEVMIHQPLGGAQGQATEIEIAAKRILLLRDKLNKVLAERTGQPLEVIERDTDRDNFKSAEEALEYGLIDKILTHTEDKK
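ClpP 10 microg/mL final, pH 8 Tris/KCl buffer with BSA, glycerol, Tween-20; compound pinned in; FRET-FV substrate; RT 20 min; Ex320/Em430; ΔFRET vs ADEP 5.8 microM, DMSO, no enzyme.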
PINK1 modulator: modulators of PINK1 expression. PINK1 immunofluorescence, high-content cytometry, 24 h. Potency, µM (highest dose often 76.6 µM), inactives show at the top dose activation (PINK1 increase), actives largely listed as activators. hit rate 0.2% among 410,000; active = well fitted activation curve with a large enough effect; inconclusive = small, poorly fitted or top-dose-only effect; inactive = flat fitted curve, though single readings scatter; cell line not stated here;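 further: potency means the concentration at half of the fitted maximal effect; % of control where 0% means no effect; nearly all actives have a fitted effect of over 65% in size; a mitochondrial uncoupler was the plate control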
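PINK1 protein level read as immunofluorescence by microplate cytometer in a fixed, stained stable cell line after 24 h exposure to five compound concentrations, with CCCP as control.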
gsp antag: antagonizes gsp, the McCune-Albright syndrome mutation | gsp-mutant cells, cAMP HTRF, 30 min; control for the full effect not named in the record | AID 624288 | hit rate 0.4% among 340,000 | Potency, µM (titrated, usually from 76.9 µM), without a hit: at the top dose activity change, negative = inhibition, usual class: inhibitors; active = falling curve of any shape with a large fitted effect; inconclusive = falling curve, mostly with a smaller effect; inactive = flat or rising curve; cell line not stated here;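 further: intracellular cAMP measured with PDE inhibitor Ro 20-1724 present during compound exposure; potency means the concentration at half of the fitted maximal effect; on the % scale 0 is the no-effect control and ±100 the full control effect; nearly all actives have a fitted effect of over 65% in size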
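Measurement of cellular cAMP by homogeneous time-resolved fluorescence following a 30 min compound exposure at 37C. The PDE inhibitor […] was present throughout; the assay buffer was DPBS with 0.05% BSA and 0.005% Tween 20.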
* = called active by the depositor; ? = inconclusive; / = not tested or not shown; & = joins results of further samples; [ ] = dose if it differs, or a comment.

cpd	Structure	Menin MLL FP FL	D2 agonist	gsp ag	Sfp PPTase inh	ClpP mod	PINK1 modulator	gsp antag
1	COc1ccccc1C1(O)CC2CCC(C1)N2S(=O)(=O)c1ccc(C(C)=O)cc1 (stereo unspecified)	-0.2	-2.4	-23%	6%	-2.2%	/	-19%
2	Cc1sc2nc(C(C)C)nc(SCC(=O)N3c4ccccc4CC3C)c2c1C (stereo unspecified)	1.9	0.1	-9%	-12%	-1.6%	5.7%	-1%
3	NS(=O)(=O)c1ccc(CCNc2nn3c(-c4ccc(F)c(Cl)c4)cnc3s2)cc1	/	11	/	/	-1.7%	0.6%	/
4	C[C@H](CO)N1C[C@H](C)[C@@H](CN(C)S(=O)(=O)c2ccccc2)Oc2c(NC(=O)C3CCCCC3)cccc2C1=O	/	-7.3	/	/	-1.5%	0.9%	-7%
5	CCOc1ccccc1CN1CCN(S(=O)(=O)CC)CC1	2.6	-0.1	-14%	-27%	-0.5%	-4.9%[38.3 µM]	6%
6	CC1(CCc2ccccc2)NC(=O)N(Cc2cc([N+](=O)[O-])cc3c2OCOC3)C1=O (stereo unspecified)	-5.2	-1.0	-43%[inhibitor]	13%	-0.5%	-0.9%	-10%
7	c1ccc(-c2csc(Nc3cccnc3)n2)cc1	0.4	2.8	-3%[15.4 µM]	32µM*	/	1.2%	-20%
8	COC(=O)c1ccc(C(=O)N(Cc2ccccc2)c2ccccc2)cc1	-1.5	2.4	4%	-5%	-1.9%	0.2%	-19%

Values by screen from the entries so far.
ClpP mod, nos. 1–8: -2.2%, -1.6%, -1.7%, -1.5%, -0.5%, -0.5%, /, -1.9%
D2 agonist, nos. 1–8: -2.4, 0.1, 11, -7.3, -0.1, -1.0, 2.8, 2.4
Menin MLL FP FL, nos. 1–8: -0.2, 1.9, /, /, 2.6, -5.2, 0.4, -1.5

The listing continues.
cpd	Structure	Menin MLL FP FL	D2 agonist	gsp ag	Sfp PPTase inh	ClpP mod	PINK1 modulator	gsp antag
9	CCOC(=O)N1CCN(c2nc3ccccn3c(=O)c2C=O)CC1	?	5.0	?	10%	-2.4%	0.2%	15%
10	COc1cc(/C=N/Nc2ccc(C(=O)O)cc2)ccc1O	1.2	-0.2	?	?	-5.9%	-0.6%	?
11	O=[N+]([O-])c1ccc(-c2nnc3n2CCCCC3)cc1	3.3	0.6	?	4%	1.2%	0.1%	16%
12	Cc1cc(=O)[nH]c2ccc(S(=O)(=O)Nc3ccccc3)cc12	-1.1	-2.9	17%	-2%	/	1.0%	7%
13	CC(C)C(=O)Nc1ccc(C(=O)N/N=C/c2cc(Br)cc(Br)c2O)cc1	?	-4.3	3%[15.4 µM]	-5%	/	12%	-5%
14	Cc1cc(C(=O)COC(=O)c2csc3c2CCCC3)c(C)n1C	1.1	1.3	-3%	4%	1.6%	6.0%	-17%
15	O=C(NCc1ccc2c(c1)OCO2)Nc1cccc(Cl)c1	-0.1	-3.0	-13%	13%	-1.2%	-0.2%	-24%
16	CCN1CCN(c2nc(-c3ccccc3)c3ccccc3n2)CC1	0.7	-2.6	-10%[15.4 µM]	-1%	/	1.5%	13%
17	FC(F)Oc1ccc(NC(=S)NCc2cccnc2)cc1	1.1	-4.6	6%[15.4 µM]	14%	/	3.8%	5%
18	CC(C)NC(=O)CSc1nnc(C2CC2)n1-c1ccccc1	0.3	-0.9	-27%	15%	1.3%	1.0%	7%
19	O=C(CCNC(=O)c1ccccc1Cl)NCC(c1ccc(F)cc1)N1CCOCC1 (stereo unspecified)	/	-3.0	-13%[15.4 µM]	/	0.8%	-1.2%	14%
20	COc1ccc(C(C(=O)NC2CCCCC2)N(C(=O)c2sc(C)nc2C)c2ccccc2)cc1 (stereo unspecified)	-1.8	-3.3	-15%	-2%	/	4.6%	-9%
21	Cc1ccc2c(n1)CC(C)(C)CC2=O	-0.4	-2.0	-17%	24%	2.6%	0.4%	-4%
22	O=S(=O)(NCC(Nc1ccccc1)c1ccccc1)c1ccc(Cl)cc1 (stereo unspecified)	-3.1	-0.5	2%[15.4 µM]	10%	-12%	?	-19%
23	CC(C)C(=O)Nc1ccc(NC(=S)NC(=O)c2ccccc2F)cc1	-2.9	-5.9	8%	19%	32µM*	-0.6%	-18%
24	Cc1ccc(-c2cc(C(F)F)nc(NCc3cccs3)n2)cc1	-0.7	-3.5	21%	12%	-21%	?	-22%
25	NC(=O)N/N=C/c1cc(Br)ccc1OC(=O)c1ccccc1	7.0	6.6	-3%	12%	-0.7%	-1.1%	-3%
26	COc1ccc(S(=O)(=O)CCC(=O)N2CCN(c3ccccc3F)CC2)cc1	-4.5	2.1	0%	12%	0.2%	0.0%	-9%
27	C[C@H](N)c1nnc(SCC(=O)c2ccc(Cl)cc2)o1	-1.8	0.5	5%	-2%	-3.2%	-0.6%[38.3 µM]	7%
28	CNCC(=O)O	/	2.3	/	/	-2.4%	-0.6%	-1%
29	COc1ccc(CCC(=O)Nc2ccc(-c3noc(-c4ccc(OC)c(OC)c4)n3)cc2)cc1	-2.6	9.5	?	3%	?	-1.7%	4%
30	CCc1ccc(OC(C)c2nnc(SCC(=O)Nc3ncccc3C)n2C)cc1 (stereo unspecified)	3.3	1.2	-30%[inhibitor]	3%	-2.5%	-2.3%	-23%
31	Cc1nn(Cc2ccccc2)c(C)c1NC(=O)c1cc2nc(-c3ccco3)cc(C(F)(F)F)n2n1	6.5	-4.1	-22%	-12%	-8.4%	3.4%	-5%
32	O=C(Cn1nnc(-c2cccc(C(F)(F)F)c2)n1)N1CCCCCC1	5.7	-0.7	1%	12%	0.4%	0.9%	7%
33	CCN(CC)CCNc1c(C)cc(CO)c(Cl)c1C	/	-6.4	-53%[inhibitor]	/	-4.7%	-1.4%	/
34	Cc1ccc(C(C)C)cc1C(=O)CC1(O)C(=O)N(C)c2ccccc21 (stereo unspecified)	1.9	-2.9	-37%	10%	-2.0%	1.4%	16%
35	CCn1c(=N)c(S(=O)(=O)c2ccc(F)cc2)cc2c(=O)n3ccccc3nc21	-0.7	-0.1	2%	7%	?	0.6%	9%
36	Cc1ccccc1-c1nnc(SCC(=O)NC2CCCC2)n1C	/	-1.5	3%	/	-1.7%	1.5%	10%
37	CCCc1cc(C(=O)Nc2cc(C)ccc2O)no1	2.2	-4.0	17%[15.4 µM]	10%	/	23%	4%
38	O=C(O)c1cccc(-c2ccc(/C=N/n3cnnc3)o2)c1	5.7	5.7	13%	0%	-18%	3.1%	-3%
39	COc1ccc(N(CN2C(=O)C3CC=CCC3C2=O)C(=O)c2ccco2)cc1 (stereo unspecified)	0.1	-4.0	-34%[inhibitor]	5%	0.9%	-0.5%	1%
40	COc1cc(OC)c2ccc(=O)oc2c1C(CCN1CCN(c2ccccc2)CC1)c1ccc2c(c1)OCO2 (stereo unspecified)	2.4&6.5	6.3	?	1%&1%	-28%	1.6%	8%
41	Cc1cccc(N(CC(=O)NCc2ccc3c(c2)OCO3)C(=O)CCC(=O)Nc2ccccn2)c1	-0.8	-3.1	-84%[inhibitor]	6%	1.0%	-0.2%	-7%
42	Cc1ccc(NC(=O)Cn2cc(C(F)(F)F)cc(Cl)c2=O)cc1S(=O)(=O)N1CCCCC1	/	0.6	4%	/	-1.2%	2.6%	-5%
43	CCOc1cc(N2CCCC2)ccc1[N+](=O)[O-]	-0.6	-2.8	-22%	-1%	1.1%	-1.4%	2%
44	CCc1ccc(C(=O)COC(=O)CNC(=O)c2ccc(N3C(=O)c4ccccc4C3=O)cc2)cc1	6.0	3.7	-23%	-8%	1.5%	-9.7%[38.3 µM]	-2%
45	O=C(CN1CCN(Cc2ccccc2)C1=O)NCCCN1CCOCC1	2.3	-5.7	22%	18%	-1.4%	-0.6%	10%
46	COc1ccc(C2c3ccc(O)cc3Oc3ncn(CCN4CCOCC4)c(=N)c32)cc1 (stereo unspecified)	2.0	0.0	-6%[15.4 µM]	11%	/	-1.0%	-16%
47	COc1ccc(C2NC(=O)NC(C)=C2C(=O)Nc2cccc(C)c2C)cc1 (stereo unspecified)	4.6	-4.1	-47%[inhibitor]	17%	-0.7%	0.1%	4%
48	Clc1cccc(Cl)c1COc1ccncc1	-0.3	7.6	-41%[inhibitor]	-9%	-2.9%	0.2%	-6%
49	CCc1ccccc1-n1nnnc1SCC(=O)Nc1cc(C)on1	-0.6	0.3	3%[15.4 µM]	-1%	/	-2.5%	-5%
50	Cc1ccc(N=Nc2ccc3ccccc3c2O)cc1	-14	-2.1	-1%[15.4 µM]	-4%	-0.5%	3.3%	9%
51	C[C@@H]1CCCCO[C@@H](CN(C)S(=O)(=O)c2ccc(F)cc2)[C@@H](C)CN([C@H](C)CO)C(=O)c2cc(NC(=O)c3ccccc3)ccc2O1	/	1.9	?	/	-5.5%	2.6%	/
52	Cc1cccc(CCNS(=O)(=O)c2ccc3c(c2)NC(=O)CS3)c1	/	1.0	4%	-6%	-0.2%	1.6%	-3%
53	COCCN(CCOC)C(=O)COC(=O)c1cc([N+](=O)[O-])ccc1Cl	-3.4	-3.2	?	14%	-1.5%	-0.5%	-1%
54	O=S1c2ccccc2Sc2ccccc21	/	-3.5	-24%	/	-2.8%	0.2%	5%

Entries of single compounds, looked up by structure. Values in the order: Menin MLL FP FL, D2 agonist, gsp ag, Sfp PPTase inh, ClpP mod, PINK1 modulator, gsp antag
COCCN(CCOC)C(=O)COC(=O)c1cc([N+](=O)[O-])ccc1Cl reads -3.4, -3.2, ?, 14%, -1.5%, -0.5%, -1%
C[C@@H]1CCCCO[C@@H](CN(C)S(=O)(=O)c2ccc(F)cc2)[C@@H](C)CN([C@H](C)CO)C(=O)c2cc(NC(=O)c3ccccc3)ccc2O1 reads /, 1.9, ?, /, -5.5%, 2.6%, /

An unsorted share of the library; about 5.1% have a hit in one of these screens.
